D2 PAM: Beta-Arrestin HTS for Positive Allosteric Modulators of the Human D2 Dopamine Receptor: Potentiators. D(2) dopamine receptor (Homo sapiens), P14416. DiscoveRx D2 beta-arrestin cells, luminescence, 90 min; 100% = 57 uM dopamine signal. potentiation, % (no concentration beside the values). hit rate 0.23% among 360,000. AID 624464, 2012; active = potentiation of 50% or more; inconclusive = 30% to 50%; inactive = 30% or less;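 also: compound concentration not given in the record; tested on top of an EC20 dose of dopamine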
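PathHunter D2 cells, attached overnight at 37 deg C, received compound in DMSO plus dopamine at EC20 (50 nM final) for 90 min at 37 deg C. Beta-arrestin recruitment was read as luminescence after 1 h with detection reagent at ambient temperature.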
TRPML1 blocker: qHTS for Inhibitors of the Human Mucolipin Transient Receptor Potential 1 (TRPML1). TRPML1-inducible cells, Ca2+ dye fluorescence, FDSS; stronger effect = lower value; inhibition of EC80 agonist-evoked calcium signal. AID 624415, 2012. Mucolipin-1 (Homo sapiens), Q9GZU1. activity change, negative = inhibition, % (concentration not given with the values). hit rate 0.02% among 390,000; in the data active means activity change below about -50%; inconclusive means about -30% to -50%; inactive means above about -30%;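 also: stimulus is agonist 54-4 at its EC80 concentration; % is scaled to controls: 0 for no effect and ±100 for the full control effect; compound concentration not given in the record; the text of the record puts the active cut at -80%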
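Tet-induced TRPML1-DL cells loaded with Ca8 no-wash calcium dye were read kinetically on FDSS. Compound addition was followed by EC80 agonist 54-4 (4 uM final); inhibition was read over 110 s.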
D2 ag: Beta-Arrestin HTS for Positive Allosteric Modulators of the Human D2 Dopamine Receptor: Agonists; activation, % (no concentration beside the values); hit rate 0.084% among 360,000; DiscoveRx PathHunter D2 beta-arrestin, luminescence, 90 min; 100% = 57 uM dopamine signal; in the data active = activation above about 40%; inconclusive = about 15% to 40%; inactive = below about 15%; also: compound concentration not given in the record; the text of the record calls up to 30% inactive
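Agonist mode: compounds alone added to overnight-plated D2 PathHunter cells for 90 min at 37 C, with 57 uM final dopamine (EC100) defining full response. Beta-arrestin recruitment detected by chemiluminescent reagent, read after 1 h at ambient temperature.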
TRPML1 agonist: qHTS for Agonists of the Human Mucolipin Transient Receptor Potential 1 (TRPML1); hit rate 0.12% among 410,000; TRPML1-expressing cells, Ca2+ dye fluorescence, FDSS; host cell line not named in the record; reference of the full effect not given here; activation, % (test concentration not listed); Mucolipin-1 (Homo sapiens), Q9GZU1; in the data active = activation above about 50%; inconclusive = about 30% to 50%; inactive = below about 30%; also: 0% is about no effect; the text of the record puts the active cut at 80%
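In this qHTS format, compounds were pin-transferred onto Ca8-dye-loaded TRPML1-DL cells induced with Tet overnight, and intracellular Ca2+ fluorescence was recorded kinetically for 110 s after a 10 s baseline. A subsequent 4uM final 54-4 (EC80) addition followed by a second 110 s read served as the antagonist phase.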
PINK1 modulator: A Quantitative High throughput Screen to Identify Chemical Modulators of PINK1 Expression; PINK1 immunofluorescence, high-content cytometry, 24 h; Potency, µM (series often up to 76.6 µM), for inactives: at the highest dose activation (PINK1 increase), usual class: activators; hit rate 0.2% among 410,000; active = well fitted activation curve with a large enough effect; inconclusive = small, poorly fitted or top-dose-only effect; inactive = flat fitted curve, though single readings scatter; cell line not stated here;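 also: potency is read from the fitted curve at half-maximal effect; % of control where 0% means no effect; nearly all actives have a fitted effect of over 65% in size; a mitochondrial uncoupler was the plate control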
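Decision-based qHTS: stable cells, 24 h exposure to five compound concentrations, CCCP as control. Fixed cells stained for PINK1 plus nuclear, mitochondrial and cell markers, cytometer read.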
Six1-Eya2 inh: qHTS Assay for Inhibitors of the Six1/Eya2 Interaction; AlphaScreen GST-Six1/His-Eya2 binding, biochemical; stronger effect = lower value; control for the full effect not named in the record; Homeobox protein SIX1 (Homo sapiens) + Protein phosphatase EYA2 (Homo sapiens), …; activity change, % (no concentration beside the values); hit rate 0.56% among 360,000; in the data active = activity change below about -65%; inconclusive = about -30% to -65%; inactive = above about -30%; also: % is scaled to controls: 0 for no effect and ±100 for the full control effect; compound concentration not given in the record
Target sequence (O00167 whole entry, looked up): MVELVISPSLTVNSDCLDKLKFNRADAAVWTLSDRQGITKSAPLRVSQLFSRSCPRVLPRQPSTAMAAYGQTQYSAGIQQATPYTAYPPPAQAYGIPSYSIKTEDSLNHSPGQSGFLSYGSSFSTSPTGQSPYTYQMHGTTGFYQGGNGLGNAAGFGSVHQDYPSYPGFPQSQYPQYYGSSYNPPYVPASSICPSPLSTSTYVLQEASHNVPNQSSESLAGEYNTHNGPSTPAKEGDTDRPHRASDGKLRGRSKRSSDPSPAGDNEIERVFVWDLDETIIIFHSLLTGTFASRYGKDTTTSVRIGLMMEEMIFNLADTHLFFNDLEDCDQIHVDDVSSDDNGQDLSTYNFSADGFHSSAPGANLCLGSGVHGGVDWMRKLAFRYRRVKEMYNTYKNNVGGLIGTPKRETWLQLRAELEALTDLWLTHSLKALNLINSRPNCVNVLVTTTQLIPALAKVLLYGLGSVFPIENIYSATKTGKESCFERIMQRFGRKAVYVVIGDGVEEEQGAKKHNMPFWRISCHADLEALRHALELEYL
Target sequence (Q15475 whole entry, looked up): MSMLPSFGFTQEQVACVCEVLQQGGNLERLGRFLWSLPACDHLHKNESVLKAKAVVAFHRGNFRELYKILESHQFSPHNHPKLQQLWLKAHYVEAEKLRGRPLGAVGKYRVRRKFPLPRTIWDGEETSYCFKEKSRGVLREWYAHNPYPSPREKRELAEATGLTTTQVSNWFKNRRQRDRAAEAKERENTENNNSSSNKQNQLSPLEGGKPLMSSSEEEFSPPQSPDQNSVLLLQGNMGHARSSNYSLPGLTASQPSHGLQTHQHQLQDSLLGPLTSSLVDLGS
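AlphaScreen luminescence read after one hour at 37 °C in darkness. Pin-transferred compounds met GST-Six1 and His-Eya2 protein (5X stock 250 nM/500 nM) plus glutathione donor and Ni-chelate acceptor beads (5X, 50 ug/mL).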
* hit, by the source's call; & = joins results of further samples; [ ] = dose if it differs, or a comment.

Screening COC1=NS(=O)(=O)c2ccccc21 returned D2 PAM 17, TRPML1 blocker -14, D2 ag -3.0, TRPML1 agonist 1.1, PINK1 modulator 1.0% and Six1-Eya2 inh 2.
`Cc1ccc(C)c(N(C)C(=O)c2ccc3c(=O)n4c(nc3c2)CCCCC4)c1` gave D2 PAM -6, TRPML1 blocker -1, D2 ag -1.8, TRPML1 agonist 0.0, PINK1 modulator -0.1% and Six1-Eya2 inh 1.
CCn1c(C)[n+](CCCS(=O)(=O)[O-])c2cc(Cl)c(Cl)cc21 was read as D2 PAM -12, TRPML1 blocker -3, D2 ag -5.1, TRPML1 agonist 0.2, PINK1 modulator -2.6% and Six1-Eya2 inh 16.
`COc1cc2c(-c3cc(Br)ccc3O)nc3c(c(C)nn3-c3ccccc3)c2cc1OC` gave TRPML1 blocker -20, TRPML1 agonist -0.2 and PINK1 modulator 8.7%.
COc1cccc(/C=N/N2C(=O)NC3(CCCCC3)C2=O)c1O was read as D2 PAM -13, TRPML1 blocker 17, D2 ag -3.1, TRPML1 agonist -0.7, PINK1 modulator -1.6% and Six1-Eya2 inh 4.
Screening O=C(O)CCC(=O)Nc1cccc(-c2nc3ccccc3o2)c1 returned D2 PAM -19, TRPML1 blocker -5, D2 ag -6.1, TRPML1 agonist -0.8, PINK1 modulator 0.9% and Six1-Eya2 inh 4.
For CCOc1cc(CN2CCN(c3ccc(C(C)=O)cc3)CC2)ccc1OC the results were D2 PAM -16, TRPML1 blocker 5, D2 ag 0.7, TRPML1 agonist 0.6, PINK1 modulator -2.1%[38.3 µM] and Six1-Eya2 inh -4.
For Cc1nonc1CN(C)C(=O)c1ccc(OC2CCN(Cc3ccccn3)CC2)cc1 the results were D2 PAM -15, TRPML1 blocker -10, D2 ag -9.9, TRPML1 agonist -0.6, PINK1 modulator -0.9% and Six1-Eya2 inh 6.
`O=C(NC1CC(=O)N(c2ccccc2)C1)C1CCCC1` (stereo unspecified) gave TRPML1 blocker -2, TRPML1 agonist -0.6 and PINK1 modulator 0.6%.
O=C(Cn1c2ccc(F)cc2c2nc3n(c(=O)c21)CCS3)N1CCCC1 was read as D2 PAM -9, TRPML1 blocker -7, D2 ag 0.4, TRPML1 agonist 0.0, PINK1 modulator 1.7% and Six1-Eya2 inh 1.
Screening OC1COC(OCC2OC(OCc3ccccc3)C(O)C(O)C2O)C(O)C1O (stereo unspecified) returned D2 PAM -23, D2 ag -2.8, PINK1 modulator 0.2% and Six1-Eya2 inh -22.
COc1ccc(S(=O)(=O)N2CC3C4C=CC(C4)C3C2)cc1 (stereo unspecified) was read as D2 PAM -9, TRPML1 blocker 2, D2 ag 2.0, TRPML1 agonist -0.3 and Six1-Eya2 inh 7.
Cc1c(Cl)cccc1NC(=S)NC(=O)c1cncc(Br)c1 was read as D2 PAM -15, TRPML1 blocker 3, D2 ag -5.1, TRPML1 agonist 0.0, PINK1 modulator 0.1% and Six1-Eya2 inh -10.
For CCO[C@@H]1OC(C(=O)N2CCN(Cc3ccccc3)CC2)=C[C@H](C2CC2)[C@H]1CCCO the results were D2 PAM -15, TRPML1 blocker 41, D2 ag -1.4, TRPML1 agonist -1.0, PINK1 modulator -0.1% and Six1-Eya2 inh -2.
Screening CCN1CCCC1CNCC(=O)Nc1ccc(OC(F)(F)F)cc1 (stereo unspecified) returned D2 PAM -2, TRPML1 blocker -19, D2 ag 2.9, TRPML1 agonist 1.0, PINK1 modulator -1.9% and Six1-Eya2 inh 6.
For CCN1c2ccccc2-c2nc(SCC(=O)NCc3ccccc3)ncc2S1(=O)=O the results were TRPML1 blocker -12, TRPML1 agonist 0.7 and PINK1 modulator 5.4%.
`Cc1ccccc1CN1[C@@H]2c3ccccc3C[C@@H]2OCCS1(=O)=O` gave D2 PAM 1, TRPML1 blocker -6, D2 ag 1.0, TRPML1 agonist 0.5&-0.8, PINK1 modulator 0.9% and Six1-Eya2 inh 7.
`O=C1Nc2ccc(Br)cc2/C1=N\N=C\C1=C(N2CCOCC2)C(=C/c2ccccc2)/CC1` gave D2 PAM -13, TRPML1 blocker 0, D2 ag -5.6, TRPML1 agonist -1.1, PINK1 modulator 7.0% and Six1-Eya2 inh -25.
Screening COc1ccc([N+](=O)[O-])cc1NC(=O)COC(=O)c1ccc(O)cc1 returned D2 PAM -1, TRPML1 blocker 16, D2 ag -5.4, TRPML1 agonist 0.7, PINK1 modulator -0.4% and Six1-Eya2 inh -1.
For CCCCCn1c(CCCNC(=O)c2cccc(C)c2)nc2ccccc21 the results were TRPML1 blocker 57, TRPML1 agonist 4.1 and PINK1 modulator inconclusive.

At a glance, part of the list above:
COc1cccc(/C=N/N2C(=O)NC3(CCCCC3)C2=O)c1O was read as D2 PAM -13, TRPML1 blocker 17, D2 ag -3.1, TRPML1 agonist -0.7, PINK1 modulator -1.6% and Six1-Eya2 inh 4.
Screening O=C(O)CCC(=O)Nc1cccc(-c2nc3ccccc3o2)c1 returned D2 PAM -19, TRPML1 blocker -5, D2 ag -6.1, TRPML1 agonist -0.8, PINK1 modulator 0.9% and Six1-Eya2 inh 4.

Other structures
`Cn1nc(C2CC2)cc1NC(=O)C1(C)CCN1C(=O)c1ccccc1CCc1ccccc1` (stereo unspecified) gave D2 PAM -7, D2 ag -4.0, TRPML1 agonist -0.3, PINK1 modulator 0.0% and Six1-Eya2 inh -9.
`CS(=O)(=O)c1ccc2nc(NC(=O)c3ccc(Cl)nc3)sc2c1` gave D2 PAM -10, TRPML1 blocker 14, D2 ag 3.1, TRPML1 agonist -0.4, PINK1 modulator 5.7% and Six1-Eya2 inh -9.
`Oc1c(Br)cc(/C=N/NC(=S)NCC2CCCO2)cc1Br` (stereo unspecified) gave D2 PAM -13, TRPML1 blocker -16, D2 ag -5.3, TRPML1 agonist -0.6, PINK1 modulator 0.0% and Six1-Eya2 inh -14.
For COCCn1c(C)cc(C(=O)COC(=O)CNC(=O)c2ccco2)c1C the results were D2 PAM -5, TRPML1 blocker -17, D2 ag -8.2, TRPML1 agonist 0.1, PINK1 modulator -0.5% and Six1-Eya2 inh 0.
`Cc1ccc(NC2CCCN(C(=O)c3cccc(-c4ncc[nH]4)c3)C2)cc1C` (stereo unspecified) gave D2 PAM -4, TRPML1 blocker -9, D2 ag 0.7, TRPML1 agonist -0.1, PINK1 modulator -0.5% and Six1-Eya2 inh -7.
`Cc1ccc(C)c(NC(=O)CSc2cn(CC(=O)N3CCCC3)c3ccccc23)c1` gave TRPML1 blocker -6, TRPML1 agonist 1.1 and PINK1 modulator 0.9%.
Cc1cnc([N+](=O)[O-])n1CCOC(=O)NC(=O)c1c(F)cccc1F was read as D2 PAM -3, TRPML1 blocker -14, D2 ag 0.8, TRPML1 agonist -0.2, PINK1 modulator 1.0% and Six1-Eya2 inh 2.
COc1ccc(OC)c(S(=O)(=O)N2CCN(C(=O)NC3CCCCC3)CC2)c1 was read as D2 PAM -1, TRPML1 blocker -9, D2 ag 1.9, TRPML1 agonist -0.3, PINK1 modulator 2.1% and Six1-Eya2 inh 11.
For Cn1c(C(O)c2ccccc2F)nc(Cl)c1Cl (stereo unspecified) the results were D2 PAM -2, TRPML1 blocker -8, D2 ag -2.2, TRPML1 agonist -1.0, PINK1 modulator -5.4%[38.3 µM] and Six1-Eya2 inh -8.
COc1ccc(Cc2nnc(NC(=O)c3ccccc3C)s2)cc1 was read as D2 PAM -4, TRPML1 blocker 11, D2 ag 1.8, TRPML1 agonist 1.7, PINK1 modulator 1.3% and Six1-Eya2 inh 3.
Cc1cc(-c2ccc(C)c(S(=O)(=O)NCc3ccc(Br)cc3)c2)on1 was read as D2 PAM -4, TRPML1 blocker 2, D2 ag 9.9, TRPML1 agonist 1.4, PINK1 modulator 0.1% and Six1-Eya2 inh -1.
Screening CCCCOc1cccc(C(=O)NNC(=S)NC2CCCCC2)c1 returned D2 PAM -42, TRPML1 blocker 6, D2 ag -7.7, TRPML1 agonist 0.3, PINK1 modulator -1.1% and Six1-Eya2 inh -1.
Screening CC1CCCCN1CCNC(=O)c1cc2c(=O)n(C)c3ccccc3c2n1C (stereo unspecified) returned D2 PAM -12, TRPML1 blocker 27, D2 ag 0.4, TRPML1 agonist -0.1, PINK1 modulator 5.3% and Six1-Eya2 inh 0.
For COc1ccccc1OCC(=O)Nc1nnc2n1CCS2 the results were TRPML1 blocker -7, TRPML1 agonist -0.6 and PINK1 modulator 0.2%.
Screening S=c1[nH]nc(-c2cccs2)n1/N=C/c1cccs1 returned D2 PAM -19, TRPML1 blocker -4, D2 ag -2.7, TRPML1 agonist -0.7, PINK1 modulator -1.9% and Six1-Eya2 inh -1.
Screening Cc1cccc(C(=O)OC2CCN(C)CC2)c1 returned D2 PAM -8, TRPML1 blocker -6, D2 ag -3.2, TRPML1 agonist 0.2, PINK1 modulator -0.6% and Six1-Eya2 inh 6.
Screening CCC(CC)C(=O)Nc1ccc(S(=O)(=O)Nc2nccs2)cc1 returned D2 PAM -6, TRPML1 blocker 37, D2 ag 2.0, TRPML1 agonist -0.3, PINK1 modulator -1.2% and Six1-Eya2 inh 7.
CCCCNC(=O)c1nn(-c2ccccc2OC)c(=O)c2ccccc12 was read as D2 PAM 12, TRPML1 blocker 9, D2 ag -1.3, TRPML1 agonist 2.6, PINK1 modulator -1.8% and Six1-Eya2 inh -5.
COc1ccc(C)cc1NC(=O)Nc1ccccc1OCc1cc(=O)n2ccccc2n1 was read as TRPML1 blocker -15, TRPML1 agonist 0.2 and PINK1 modulator 4.6%.
Cc1ccc(N2CC(=O)N(c3ccc(C)cc3)CC2=O)cc1 was read as D2 PAM -2, TRPML1 blocker -4, D2 ag -2.9, TRPML1 agonist -0.4, PINK1 modulator 5.3% and Six1-Eya2 inh 3.
Screening COc1ccc(N2C(=O)CC(S/C(N)=N/N=C(\C)c3cccs3)C2=O)cc1 (stereo unspecified) returned D2 PAM -3, TRPML1 blocker -5, D2 ag -1.4, TRPML1 agonist -0.1, PINK1 modulator -2.5% and Six1-Eya2 inh -5.
For C/C(=C\C=C(C#N)C#N)c1cc(C#N)c(N)o1 the results were D2 PAM -7, TRPML1 blocker 3, D2 ag -5.2, TRPML1 agonist 54*, PINK1 modulator 0.4% and Six1-Eya2 inh inconclusive.
Screening COc1ccc(Cc2nnc(SCC(=O)NC3(C#N)CCCCC3)n2N)cc1 returned D2 PAM 12, TRPML1 blocker -18, D2 ag -0.2, TRPML1 agonist 2.3, PINK1 modulator -1.4% and Six1-Eya2 inh 5.

Source: PubChem (National Center for Advancing Translational Sciences (NCATS))
